# Mtb growth = Confirmatory growth inhibition assay against Mycobacterium tuberculosis H37Rv, potency (AID 1949); most inactive calls were filed without a number and no value below 0 was filed; inhibition, % at 10 µg/mL; hits with a dose series show IC50 in µg/mL; 1.6% of 100,000 active;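 active means confirmed in a dose series; inconclusive means about 50% or more but not retested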;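 further: bacteria grown 7 days with compound before Alamar blue readout; 0% = untreated bacteria and 100% = reference antibiotic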
# Starred values were filed as active, the others as inactive; i = inactive; ? = inconclusive. Not all compounds are listed. The share of hits here may be higher or lower than overall.
Molecule | Mtb growth
N#Cc1cc(C#N)c(SCc2ccc(Cl)cc2)nc1N | 4.2%
CCn1c(SCC(=O)Nc2nccs2)nnc1-c1ccncc1 | i
Cn1c(NC(=O)c2ccc(Br)o2)cc(=O)n(C)c1=O | i
S=C(Nc1ccccc1)N1CC=C(c2ccccc2)CC1 | i
CCCCC(=O)Nc1cccc(NC(=O)c2ccc(OCC)c([N+](=O)[O-])c2)c1 | 5.9%
CCCCC(=O)Nc1cccc(NC(=S)NC(=O)c2ccc3c(c2)OCCO3)c1 | i
COc1ccc(C)cc1N(CC(=O)Nc1ccccc1C(=O)NC(C)C)S(C)(=O)=O | i
CCC(C)(C)c1ccc(OC(=O)CN2C(=O)c3ccccc3C2=O)cc1 | i
CC(C)(C)c1ccc(C(=O)N2CCC(C(=O)Nc3ccccc3Cl)CC2)cc1 | 6.2%
COc1ccc(NC(=S)NCCCCc2ccccc2)cc1OC | i
O=C(c1cc2c(s1)CCCC2)n1cccn1 | ?
Cc1c(C)c2cc(Cl)c(OCc3c(F)cccc3Cl)cc2oc1=O | i
Cc1ccc(Cl)cc1N1CCN(C(=S)NC2CC2)CC1 | i
Cc1ccc(F)cc1NC(=O)CSc1nc2ccccc2s1 | 1.2%
COc1ccc(NC(=O)CSc2nc3c(c(-c4cccs4)c2C#N)CCCC3)cc1 | i

# Reprinted from the part before: four compounds, followed by the next part.
Molecule | Mtb growth
Cc1c(C)c2cc(Cl)c(OCc3c(F)cccc3Cl)cc2oc1=O | i
Cc1ccc(Cl)cc1N1CCN(C(=S)NC2CC2)CC1 | i
Cc1ccc(F)cc1NC(=O)CSc1nc2ccccc2s1 | 1.2%
COc1ccc(NC(=O)CSc2nc3c(c(-c4cccs4)c2C#N)CCCC3)cc1 | i
O=C(O)CNS(=O)(=O)c1cc(Cl)c(Cl)cc1Cl | i
CCc1ccc(NC(=O)C23CCC(C2)C(C)(C)C3=O)cc1 (stereo unspecified) | i
COc1ccc(-c2onc(C)c2Oc2cnn(-c3ccccc3)c2)c(O)c1 | i
O=C(CN(Cc1ccccc1Cl)S(=O)(=O)c1ccc(Br)cc1)NC1CC1 | i
Cc1ccc2nc(-c3ccc(NC(=O)C(C)Oc4ccc(F)cc4)cc3)sc2c1 (stereo unspecified) | i
Clc1ccccc1OCc1nn2c(-c3ccncc3)nnc2s1 | i
CC(C)(C)c1ccc(C(=O)Oc2ccc3c(c2)OCC3=O)cc1 | 20.9%
COc1ccccc1OCc1nc(-c2ccccc2)no1 | 3.3%
COc1ccccc1CN1CCC(N2CCN(C)CC2)CC1 | i
Nc1cc(S(=O)(=O)Nc2ccc(Cl)cc2)ccc1Cl | i
O=C(Nc1ccc(OC(=O)N2CCCC2)cc1)N1CCOCC1 | i
CCOc1ccccc1C1C(C(=O)Nc2ccccc2C)=C(C)NC2=C1C(=O)CC(C)(C)C2 (stereo unspecified) | i
CCCCOc1ccc(S(=O)(=O)NC2CCCCC2)cc1 | i
O=C(NNC(=S)NCc1ccc(F)cc1)c1sc2ccccc2c1Cl | 5.5%
CSc1nc(-c2ccccc2)nn1S(=O)(=O)c1ccc(Cl)cc1 | i
O=S(=O)(c1c(Cl)cccc1Cl)N1CCN(c2ccccc2)CC1 | i
CC(C)NS(=O)(=O)c1ccc(OCC(=O)NCc2ccc(Cl)cc2)cc1 | i
CCn1c(SCC(=O)N(C2CCCCC2)C2CCCCC2)nnc1-c1ccccc1C | 6.4%
Cc1ccc(C(=O)Nc2ccccc2C(=O)Nc2ccc(Cl)cc2Cl)cc1 | i
O=c1ccc(-c2n[nH]c(=S)n2-c2ccc(F)c(Cl)c2)n[nH]1 | i
CC(Oc1cccc(Cl)c1)C(=O)Nc1cc(C(F)(F)F)ccc1Cl (stereo unspecified) | 1.2%
Cc1c(C(=O)Nc2ccccc2)oc2ccc(Br)cc12 | 32.0%
CC(=O)NC(n1c(SCc2ccccc2)nc2ccccc21)C(Cl)(Cl)Cl (stereo unspecified) | i
CCc1ccc(CCC(=O)Nc2sc3c(c2C#N)CCCC3)o1 | i
Cc1cc(NC(=O)CC(C)C)c(C)cc1I | i
O=S(=O)(NCCCCc1ccccc1)c1ccc(Cl)cc1 | 13.6%
COc1ccc(CC(=O)Nc2sc3c(c2C(=O)Nc2ccccc2OC)CCC3)cc1 | i
C=CCN1C(=O)C(Cc2ccc(F)cc2)S/C1=N\N=C\c1cccs1 (stereo unspecified) | i
CCC(=O)n1nc(-c2ccco2)nc1N | 8.1%
CCN(CC)C(=O)c1sc(NC(=O)c2ccccc2[N+](=O)[O-])c(C(=O)OC)c1C | i

# Given as labelled records: part of the list above
> CCc1ccc(CCC(=O)Nc2sc3c(c2C#N)CCCC3)o1
  Mtb growth: i
> CC(C)NS(=O)(=O)c1ccc(OCC(=O)NCc2ccc(Cl)cc2)cc1
  Mtb growth: i
> CCN(CC)C(=O)c1sc(NC(=O)c2ccccc2[N+](=O)[O-])c(C(=O)OC)c1C
  Mtb growth: i

# Next part.
Molecule | Mtb growth
CC(=O)N(C)c1ccc(NC(=O)COc2cc(C)cc(C)c2)cc1 | i
COc1cccc(CN2CCC(N3CCN(c4ccccc4F)CC3)CC2)c1 | i
CC(OC(=O)c1ccccc1NC(=O)c1ccco1)c1ccccc1 (stereo unspecified) | 7.0%
Cc1ccc(Cl)cc1NC(=O)CN(c1ccccc1F)S(C)(=O)=O | i
Cc1c(C(=O)NC(=S)Nc2ccc(-c3nc4cc(C(C)C)ccc4o3)cc2)cccc1[N+](=O)[O-] | 49.0%
O=C(Nc1ccc(Cl)cc1Cl)c1cccc(Cl)c1 | i
Cc1cccc(NC(=O)CN(c2ccc(Oc3ccccc3)cc2)S(C)(=O)=O)c1C | i
Cc1cc(C)nc(SCc2nnnn2-c2ccccc2)n1 | i
CC(O)CNCCOc1ccc2ccccc2c1Br (stereo unspecified) | 0.7%
CCc1ccccc1NC(=O)CSc1nnc(-c2ccc(Br)cc2)n1CC | 0.7%
O=C1c2oc3ccc(Cl)cc3c(=O)c2C(c2cccc([N+](=O)[O-])c2)N1CCCN1CCOCC1 (stereo unspecified) | i
O=C(CCc1ccccc1)NCc1ccccc1 | i
CCn1c(C)c(C(C)=O)c(N2CCN(CCO)CC2)nc1=S | i
COc1cccc(-c2noc(-c3ccccc3Cl)n2)c1 | 8.1%
Cc1ncc(CSc2nnnn2-c2ccccc2)c(N)n1 | i
CCC(=O)c1ccccc1OCCCN1C(=O)NC(C)(C)C1=O | i
C#CCSc1nnc2n(CC)c(=O)c3c(n12)-c1ccccc1CC31CCCCC1 | i
O=C(CSc1nnc(-c2cccs2)n1-c1ccccc1)NCc1ccco1 | i
Cc1ccc(NS(=O)(=O)c2ccccc2C#N)c(C)c1 | i
COc1ccccc1CNC(=O)CN(c1c(C)cccc1C)S(C)(=O)=O | i
O=C(COc1ccc(S(=O)(=O)Nc2ccc(F)cc2)cc1)Nc1ccccc1Br | i
COc1ccccc1C(=O)N1CCN(Cc2cccc(Oc3ccccc3)c2)CC1 | i
COc1ccc(NC(=O)CN(c2ccc(C34CC5CC(CC(C5)C3)C4)cc2)S(C)(=O)=O)c(OC)c1 | 7.3%
Cc1onc(-c2ccccc2)c1C(=O)NC(=S)NNC(=O)c1cccs1 | 21.4%
Cc1ccc(C(C)NC(=O)c2ccc3c(c2)OCCO3)cc1C (stereo unspecified) | i
CCc1nc(SCC(=O)Nc2ccccc2Cl)n[nH]1 | i
CC1CCc2nc3ccccc3c(C(=O)O)c2C1 (stereo unspecified) | i
O=[N+]([O-])c1cccc(S(=O)(=O)Nc2cccnc2)c1 | i
CN1CCN(CCC(=O)N2c3ccccc3Sc3ccc(Cl)cc32)CC1 | 4.7%
O=S(=O)(NCC1CCCO1)c1ccc(-c2ccc(Cl)cc2)cc1 (stereo unspecified) | i

# Going on with the list:
mol	Mtb growth
Cc1cccc(C)c1NC(=O)COc1ccc2c3c(c(=O)oc2c1)CCC3	1.0%
C=CCNCCOCCOc1ccccc1CC=C	i
Cc1csc(NC(=O)c2cccc(Cn3nc(C)c(Br)c3C)c2)n1	40.0%
O=C(Nc1ccc(Br)cc1F)C1CCN(C(=O)c2ccccc2)CC1	i
CN(Cc1ccccc1)S(=O)(=O)c1ccc(OCC(=O)N2CCCC2)cc1	i
CN(c1ccccc1C(=O)Nc1ccc(S(=O)(=O)N2CCCCCC2)cc1)S(C)(=O)=O	i
Cc1ccc(C(=O)N2CCN(C3CCCCC3)CC2)s1	i
Cn1c(=O)c2c(nc(CN3CCN(c4ccccc4)CC3)n2CCN2CCOCC2)n(C)c1=O	i
O=C(COc1ccc(Cl)cc1Br)Nc1ccccc1C(=O)Nc1ccccc1	1.0%
Cc1cccc(NC(=O)c2cc3c(n(-c4ccccc4)c2=O)CCCC3=O)n1	i
CCOC(=O)N1CCN(C(=O)CN(c2c(C)cccc2C)S(C)(=O)=O)CC1	i
CCOc1cc(CN)c(Br)cc1OC	i
Cc1cc(=O)[nH]c(SCc2ccccc2)n1	i
COc1ccc(C)cc1NC(=O)CN(C)S(=O)(=O)c1ccc(OC)c(OC)c1	0.9%
COc1cc(NC(=S)NCCN2CCOCC2)cc(OC)c1	i
Cc1cc(Br)ccc1OCC(=O)Nc1cc(Cl)ccc1Cl	i
CCOc1ccccc1NC(=S)NNC(=O)C(O)(c1ccccc1)c1ccccc1	i
COc1ccc(S(=O)(=O)Nc2ccccc2C(=O)NC(C)c2ccccc2)cc1OC (stereo unspecified)	i
Clc1ccc(OCCSc2ncnc3ccccc23)cc1	i
CC(C)NS(=O)(=O)c1ccc(OCC(=O)O)c(Cl)c1	i
COc1ccccc1OCc1c(Cl)cccc1Cl	i
CCN(CC)C(=O)c1ccc(C)c(S(=O)(=O)Nc2cccc(C)c2)c1	i
CCC(=O)c1ccc(Oc2ccc(C(F)(F)F)cn2)cc1	i
CC1=CC(C)(C)N2C(=O)C3(C(C#N)=C(N)Oc4cc(C)oc(=O)c43)c3c(C)c(C)cc1c32 (stereo unspecified)	13.2%
O=C(COc1ccc(S(=O)(=O)NC2CCCCC2)cc1)Nc1cc(C(F)(F)F)ccc1Cl	1.7%
Cc1ccc(S(=O)(=O)N(CC(=O)Nc2c(C)cc(C)cc2C)c2cccc(Cl)c2C)cc1	i
O=C(CSC1CC(=O)N(c2ccc(I)cc2)C1=O)Nc1ccccc1 (stereo unspecified)	i
COc1ccc(Nc2ncnc3sc4c(c23)CCC4)cc1	5.1%
CC(C)c1ccc(C(=O)Nc2ccc(F)cc2F)cc1	i
CNC(=O)CC1Nc2cc(C)c(C)cc2NC1=O (stereo unspecified)	i

# Of the compounds above, these contain a COOH group.
mol	Mtb growth
O=C(O)CNS(=O)(=O)c1cc(Cl)c(Cl)cc1Cl	i
CC1CCc2nc3ccccc3c(C(=O)O)c2C1 (stereo unspecified)	i
CC(C)NS(=O)(=O)c1ccc(OCC(=O)O)c(Cl)c1	i

# (continued)
mol	Mtb growth
Cc1ccccc1NC(=O)c1cnn(-c2ccccc2)c1NC(=O)c1ccccc1F	i
COc1ccc(-c2c[n+](=O)c3c(n2[O-])CCC3)c(OC)c1	i
CCc1ccc(NS(=O)(=O)c2ccc3[nH]c(=O)[nH]c3c2)cc1	i
Cc1cc(C)c(OCCCCNCc2ccccc2)c(Cl)c1	5.18µg/mL*
COc1ccc(NC(=S)NCCO)c(OC)c1	i
Cc1ccc(SCC(=O)Nc2ccc(C)c(C)c2)cc1	3.4µg/mL*
Cc1cc(O)ccc1NC(=S)NC(=O)c1cncc(Br)c1	?
CCc1cccc(C)c1NC(=O)Cc1ccc(OC)c(OC)c1	i
COc1ccc(-c2csc3nc(-c4ccccc4C)oc(=O)c23)cc1	i
O=C(CN1CCCC1)NC1CCCCC1	i
CCN1CCN(CCCOc2ccc(OCc3ccccc3)cc2)CC1	i
CCC(=O)N1N=C(c2cccs2)CC1c1ccc(F)cc1 (stereo unspecified)	3.4%
Cc1ccccc1OCC(=O)Oc1ccccc1[N+](=O)[O-]	9.3%
O=C(NNC(=S)NCc1ccco1)c1ccc(Cl)s1	i
O=C(NCCCN1CCN(CCCNC(=O)c2ccc3c(c2)OCO3)CC1)c1ccc2c(c1)OCO2	i
COc1ccc(Cc2nnc(NC(=O)c3ccc(NC(C)=O)cc3)s2)cc1	i
Cc1nn(Cc2ccc(C(=O)Nc3nccs3)cc2)c(C)c1Cl	43.5%
COc1c(Cl)ccc(Cl)c1C(=O)NCc1ccco1	i
CC(C)(C)c1ccc(C(=O)N2CCC(C(=O)NCc3cccnc3)CC2)cc1	i
COc1cccc2cc(C(=O)N3CCCCC3C)c(=O)oc12 (stereo unspecified)	i
CCOc1ccc(S(=O)(=O)Nc2ccc(S(=O)(=O)N(CC)CC)cc2)cc1	i
CN(C)S(=O)(=O)c1ccc(NC(=O)CCC(=O)O)cc1	i
CCOc1ccccc1N(CC(=O)Nc1ccc(Cl)cc1C)S(=O)(=O)c1ccc(Cl)cc1	i
COCCN1C(=O)c2oc3cc(C)c(C)cc3c(=O)c2C1c1ccc(Cl)cc1 (stereo unspecified)	i
CCCNC(=O)COc1ccc(S(=O)(=O)NCC(C)C)cc1C	i
COc1ccc(-c2nnc(SCC(=O)Nc3ccc([N+](=O)[O-])cc3)o2)cc1	0.64µg/mL*
Cc1nc(SCc2ccccc2C)n[nH]1	14.8%
Cc1ccccc1NS(=O)(=O)c1cc(C(=O)N2CCN(c3ccc(F)cc3)CC2)ccc1C	i
COc1ccc(NC(=O)c2cc3nc(-c4ccco4)cc(C(F)(F)F)n3n2)cc1OC	i
Cc1c(Cl)cccc1NC(=S)N1CCN(S(C)(=O)=O)CC1	i
COc1ccc(S(=O)(=O)Nc2ccc3c(c2)OCCO3)cc1I	i
COc1ccc(S(=O)(=O)N2CCC(C(=O)O)CC2)cc1C(=O)O	i
COc1ccc(Nc2nc(N)nc(CN3CCCCCC3)n2)cc1	i
CCOC(=O)c1c(NC(=O)c2c(F)cccc2F)sc(C)c1-c1ccc(OC)cc1	6.1%
O=C(CCC1CCCCC1)N1CCCN(C(=O)CCC2CCCCC2)CC1	i

# Screening data from PubChem BioAssay.
